BJeLR viability = kills HRASV12-expressing BJeLR cells | inhibition, % (concentration not given with the values) | 300,000 tested, 0.17% active | BJeLR (HRASV12) viability, CellTiter-Glo ATP luminescence, 48 h; reference of the scale not given here | AID 1554;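 active = replicate mean above 50%; inconclusive = above 50% but judged a plate artefact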;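 note: 50 nL library stock added to about 25 µL; numbers are from one replicate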
Bead autofluor = compound fluorescence in toxin protease inhibitor counterscreen. compound autofluorescence counterscreen, microsphere flow cytometry; active compounds read high. fluorescence intensity (test concentration not listed). 360,000 tested, 3.1% active. AID 624483;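 active = at least 3 SD above the mean of all compounds, about 16000 in these data; inconclusive = too few beads counted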;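 note: 100 nL of 1 mM stock went into each well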
RN4220 kill = S. aureus RN4220 growth inhibition | inhibition, % (concentration not given with the values) | AID 1259311 | OD600, 16 h | 330,000 tested, 0.33% active;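 active = z-score of -3 or lower and OD600 up to 0.18 on both plates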;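 note: plate controls were untreated cells for no effect and reference antibiotic for full effect; stock transfer was 100 nL into about 80 µL; one replicate is shown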
PrP UTR inh = suppresses PrP 5' UTR mRNA reporter expression; 340,000 tested, 0.35% active; inhibition, % (no concentration beside the values); cell-based PrP 5' UTR mRNA reporter, plate reader;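 active = every replicate at 50% or more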;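 note: 0 = median of the neutral control wells; tested in H4 reporter cells; numbers are from one replicate; inactives centre near -14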
Mtb hypoxia rep = reduces hypoxia-regulated biosensor signal in M. tuberculosis | M. tuberculosis hypoxia-regulated fluorescent reporter, fluorescence | fluorescence inhibition, % (test concentration not listed) | 300,000 tested, 0.1% active | AID 1159583;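 active = 35 to 45% if threefold the growth effect, above 45% if 1.5-fold the growth effect; inactive = the rest, general growth blockers included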;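 note: wells of about 50 µL received 100 nL stock; 0% = vehicle wells and 100% = reference inhibitor wells; whole bacteria with a GFP reporter of the hypoxia response; strong numbers were not always called active; many hits fall short of the cut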
ugtP null kill = compounds lethal to S. aureus RN4220 ugtP deletion mutant; OD600 growth, 16 h; some inactives read as strong as hits; growth inhibition, % (concentration not given with the values); 330,000 tested, 0.54% active; AID 1259309;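 active = z-score under -3 and OD600 up to 0.15 on both plates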;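 note: plate controls were untreated wells for no effect and antibiotic for full effect; wells of about 80 µL received 100 nL stock; the first replicate is given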
Mtb hypoxia rep growth = recorded beside Mtb hypoxia rep, whose call it bears; growth inhibition, %; measured here: M. tuberculosis growth (absorbance);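 0% = vehicle and 100% = reference antibiotic; read after six days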
The depositor's hits bear a star; ? = inconclusive; nt = no result given.

The line under a structure holds: BJeLR viability | Bead autofluor | RN4220 kill | PrP UTR inh | Mtb hypoxia rep | Mtb hypoxia rep growth | ugtP null kill
COCc1nnc(NS(=O)(=O)c2ccc(Cl)cc2)s1
→ 0.2 | 3691 | 2.6 | -5.5 | 12.3 | -0.1 | 1.7
COC(=O)COc1cccc(NC(=O)c2ccccc2)c1
→ 6.8 | 24578* | 2.2 | -11.9 | 12.0 | 9.3 | 5.1
Cc1cccn2cc(-c3ccc(NC(=O)Cc4ccccc4)cc3)nc12
→ 6.0 | 6533 | 6.7 | -37.3 | 3.1 | -0.2 | 1.0
CN1CCN(NC(=O)c2ccc(S(=O)(=O)N3CCCCCC3)cc2)CC1
→ 0.5 | 3095 | 13.1 | -18.3 | -7.7 | -1.7 | 7.6
O=C1C2C3C=CC(C3)C2C(=O)N1CCCO (configuration not stated)
→ -10.2 | 2749 | 6.0 | -13.9 | 6.3 | 8.9 | 5.9
Cc1cccc(C)c1OCC(=O)N1CCc2ccccc2C1
→ -9.2 | 4095 | 3.8 | -14.2 | -3.9 | -2.0 | -0.3
CS(=O)(=O)N(CC(=O)O)c1ccc(C23CC4CC(CC(C4)C2)C3)cc1
→ -0.6 | 2986 | 4.5 | -6.0 | 3.5 | -1.5 | -0.6
COc1cc(NC(=O)COc2ccc3c(C)cc(=O)oc3c2C)cc(OC)c1OC
→ 0.0 | 5875 | -0.1 | -11.5 | -5.3 | 8.0 | -2.8
O=Cc1cn(-c2ccc(F)cc2)c2ccccc12
→ 3.6 | 2584 | 8.6 | -13.3 | 15.4 | -1.8 | -4.3
CC12C(=O)N(Cc3ccccc3)C(=O)C1C1C=CC2C1 (configuration not stated)
→ -12.2 | 6620 | 6.6 | -9.6 | 3.6 | 1.1 | -0.2
COc1cc(/C=C/C(=O)O)ccc1OS(=O)(=O)c1cc(Br)ccc1C
→ nt | 6470 | 11.6 | -9.6 | 6.9 | -1.7 | -0.5
CC(C)OCCCNc1ncnc2c1nc1n2CCCC1
→ -0.4 | 3503 | 0.7 | -13.6 | 12.7 | 6.6 | 1.0
COc1ccc(S(=O)(=O)Nc2nc3ccccc3s2)cc1OC
→ -1.2 | 5500 | 11.8 | -3.8 | 0.8 | 3.2 | 1.6
Cc1ccc(S(=O)(=O)N2CCC(=O)N(CCOC(=O)Nc3cc(C)cc(C)c3)CC2)cc1
→ -11.1 | 2917 | 0.8 | -19.3 | -2.0 | -7.2 | -25.9
C=CCn1cc(C(=O)NCc2ccc(Cl)cc2)c(=O)c2cc(S(=O)(=O)N(CC)CC)ccc21
→ 0.5 | 7586 | 3.7 | -12.7 | 3.9 | 2.9 | -1.0
Cc1ccc(N2C(=O)C3C4C=CC(CNC(=S)Nc5ccc(Cl)cc5)(O4)C3C2=O)cc1 (configuration not stated)
→ 0.1 | 7432 | -4.5 | -4.9 | 0.9 | -1.2 | 0.6
COc1cccc(C2/C(=C(\O)c3ccc4c(c3)OCCO4)C(=O)C(=O)N2CC2CCCO2)c1 (configuration not stated)
→ nt | 7141 | -1.6 | -0.8 | -7.3 | 8.3 | -4.5
COc1cc2c(cc1OC)CN(S(=O)(=O)c1cccc(F)c1)CC2
→ 0.4 | 3306 | -1.7 | nt | -2.0 | 2.3 | 1.7
COCCn1c(SCc2ccc(C(=O)OC)o2)nc2cc(Cl)ccc2c1=O
→ -11.6 | 6711 | 2.6 | -20.4 | 21.1 | 9.7 | 9.5
COc1cc(/C=C(\C#N)c2nc3ccccc3o2)ccc1O
→ 1.7 | 4397 | 10.2 | -4.0 | 13.9 | -0.7 | 4.3

An excerpt from the list above, as a working copy:
The line under a structure holds: BJeLR viability | Bead autofluor | RN4220 kill | PrP UTR inh | Mtb hypoxia rep | Mtb hypoxia rep growth | ugtP null kill
CC12C(=O)N(Cc3ccccc3)C(=O)C1C1C=CC2C1 (configuration not stated)
→ -12.2 | 6620 | 6.6 | -9.6 | 3.6 | 1.1 | -0.2
COc1cc(/C=C/C(=O)O)ccc1OS(=O)(=O)c1cc(Br)ccc1C
→ nt | 6470 | 11.6 | -9.6 | 6.9 | -1.7 | -0.5
CC(C)OCCCNc1ncnc2c1nc1n2CCCC1
→ -0.4 | 3503 | 0.7 | -13.6 | 12.7 | 6.6 | 1.0
COc1ccc(S(=O)(=O)Nc2nc3ccccc3s2)cc1OC
→ -1.2 | 5500 | 11.8 | -3.8 | 0.8 | 3.2 | 1.6

The listing continues:
The line under a structure holds: BJeLR viability | Bead autofluor | RN4220 kill | PrP UTR inh | Mtb hypoxia rep | Mtb hypoxia rep growth | ugtP null kill
Cc1ccc(/C=C/S(=O)(=O)NCC(=O)O)cc1
→ 9.1 | 4397 | 7.5 | -4.9 | -3.2 | 5.0 | 23.1
COC(=O)C1=C(NC(=O)COc2ccc3ccccc3c2)CCS1
→ -1.2 | 2230 | 1.7 | -7.8 | -2.9 | 3.5 | -4.6
Cc1ccc(C(=O)NNS(=O)(=O)c2ccccc2[N+](=O)[O-])cc1
→ -11.3 | 5101 | 4.5 | -24.2 | nt | nt | -11.4
O=C(CSc1ccc(Cl)cc1)N/N=C/c1ccc([N+](=O)[O-])o1
→ 3.1 | 3933 | nt | -18.9 | nt | nt | nt
Cc1ccc(-c2nn3c(C)nnc3c3ccccc23)cc1S(=O)(=O)N(C)CCO
→ -3.5 | 2867 | 6.3 | -13.1 | 2.8 | 6.3 | -10.5
Fc1cccc(F)c1CN1CCN(Cc2c(F)cccc2F)CC1
→ 8.6 | 5129 | 9.9 | -5.4 | nt | nt | 7.7
Cc1cccc(NC(=O)C2CCCN(C(=O)NC3CCCCC3)C2)c1C (configuration not stated)
→ 3.9 | 22986* | 1.5 | -33.2 | 9.6 | 5.1 | 0.4
CCOC(=O)N1CCN(CC(O)c2c[nH]c3ccc(OC)cc23)CC1 (configuration not stated)
→ 5.9 | 3819 | -0.3 | -18.3 | 0.3 | 3.7 | 13.6
CCOc1ccc(C(=O)Nc2ccc(NC(=O)c3ccco3)c(Cl)c2)cc1Cl
→ -1.3 | 3179 | 10.6 | -5.5 | 19.5 | 16.3 | -3.3
COc1ccccc1C(=O)NCCC(=O)N1CCN(c2ccccc2Cl)CC1
→ -2.1 | ? | 3.9 | 2.5 | -0.6 | 0.0 | 4.0
Cc1nn(-c2ccccc2)c(N2CCCC2)c1/C=N/NC(=O)C1CC1
→ 6.7 | 4004 | nt | -6.4 | nt | nt | nt
O=C(Nc1ccccc1N1CCCCC1)C1CCN(S(=O)(=O)c2ccccc2C(F)(F)F)CC1
→ -3.5 | 5836 | -2.7 | -16.6 | 1.4 | 16.7 | -2.1
CN(Cc1ccccc1)S(=O)(=O)c1ccc2c(c1)CCC(=O)N2
→ 7.4 | 6187 | 4.5 | -13.0 | 10.8 | 3.9 | 1.9
NC(=O)CC(NC(=O)Cc1ccc(Br)cc1)c1ccc(NCc2ccc(F)c(F)c2)c([N+](=O)[O-])c1 (configuration not stated)
→ -5.9 | 3460 | 1.3 | -26.3 | 17.9 | 10.7 | -21.9
CC(=O)Nc1ccc(S(=O)(=O)NC2(C(F)(F)F)NC(=O)N(CC(C)C)C2=O)cc1 (configuration not stated)
→ -1.4 | 4778 | -0.6 | -7.0 | 17.8 | 2.0 | -2.7
CSc1ccccc1C(=O)Nc1ccc2c(c1)CCC2
→ 10.4 | 4087 | 2.2 | -67.4 | -0.3 | 7.0 | 5.5
CCOCc1cn(CC(=O)c2ccc(Cl)cc2)c(C)nc1=N
→ 10.4 | 2567 | 1.2 | -18.6 | 8.6 | 11.4 | -2.6
Cc1cccc(N2CCN(S(=O)(=O)c3cc(-c4cc(C)no4)ccc3C)CC2C)c1 (configuration not stated)
→ 2.3 | 5494 | nt | -38.6 | nt | nt | nt
COc1ccccc1C(=O)Nc1ccc(NC(=O)c2ccco2)cn1
→ -0.9 | 3102 | -0.7 | -49.1 | -10.1 | -0.8 | -2.8
COc1ccccc1NC(=S)N1CC(C)(C)C1=O
→ 2.3 | 4168 | 6.9 | 4.1 | -2.5 | -2.5 | 5.2
CN(C)CCOc1ccc(/C(=C(/CCCl)c2ccccc2)c2ccccc2)cc1
→ -9.4 | 4517 | nt | -6.2 | nt | nt | nt
CC(C)(C)OC(=O)NCCCCCO
→ nt | 6184 | 2.1 | -20.6 | 8.0 | -1.5 | 1.9
CC(=O)c1ccc(NC(=O)Nc2cccnc2)cc1
→ nt | 6708 | -1.0 | -19.3 | -3.6 | 3.9 | -2.1
O=S(=O)(NCc1cccnc1)c1ccc(Br)c2ccccc12
→ 11.0 | 3831 | nt | -16.0 | nt | nt | nt
Cc1csc(NC(=O)CSc2ccccc2F)n1
→ 3.3 | 3442 | 6.6 | -28.0 | 16.4 | 2.5 | 3.0
Cc1ccc(NC(=O)c2ccc(C)c(S(=O)(=O)N3CCOCC3)c2)nc1
→ -6.2 | ? | nt | -13.7 | nt | nt | nt
O=C(CSc1ccc2c(c1)OCCO2)NCCN1C(=O)CSC1=O
→ -1.5 | 3629 | 4.6 | 5.6 | nt | nt | 9.6
CC(/C=C/C1[C@H](C)C[C@H](O[C@@H]2O[C@H](CO)[C@@H](O)[C@H](O)[C@H]2O)CC1(C)C)O[C@H]1O[C@H](CO)[C@@H](O)[C@H](O)[C@H]1O (some centres not stated)
→ nt | 5605 | -0.6 | -14.3 | nt | nt | -4.0
O=C1Cc2cc(S(=O)(=O)Nc3ccc(F)cc3Cl)ccc2N1
→ nt | 3762 | 6.2 | -11.2 | 8.6 | 10.5 | 2.3
O=C(Nc1ccccc1)N1CCCCC1c1cccnc1 (configuration not stated)
→ 0.9 | 5104 | 5.1 | -33.7 | nt | nt | 4.7
CC(C)(O)C#Cc1ccc(C(=O)N2CCCC2C(=O)O)s1 (configuration not stated)
→ -0.5 | 6474 | 2.1 | 10.9 | nt | nt | -2.1
COc1ccc(-n2c(C)cc(/C=C3\SC(=S)N(Cc4ccco4)C3=O)c2C)cc1
→ 13.7 | 6596 | -2.2 | -13.0 | 5.3 | 4.0 | -16.5
COC(=O)C1CC1C(NC(=O)c1ccc[nH]1)c1ccccc1 (configuration not stated)
→ nt | nt | 5.8 | nt | 14.9 | 5.4 | -0.1
Cc1cc(NC(=NC2CC2)c2ccccc2F)n(-c2ccccc2)n1
→ 1.5 | 3422 | -0.3 | -2.6 | 8.3 | 5.5 | 4.2
Cc1cc(C)n2c(C)nnc2c1
→ 16.8 | 13338 | 2.2 | -16.9 | 11.4 | -0.8 | 11.5
CCn1c(COc2ccc(=O)n(-c3ccccc3)n2)nnc1SCc1ccccc1
→ -3.3 | 21225* | 3.3 | -12.8 | -1.5 | 3.2 | 1.5
COc1ccc(C(=O)Nc2cc(=O)n(C)c(=O)n2C)cc1
→ -9.3 | 2579 | 1.7 | 17.8 | 10.0 | 4.1 | 8.1
CCCCN(C(=O)Cn1nnc2ccccc21)C(C(=O)NCCOC)c1ccc(OC)cc1 (configuration not stated)
→ -0.4 | 4731 | 4.0 | -33.9 | nt | nt | 6.8
N#Cc1cccnc1N1CCN(C(=O)c2cccc3c2C(=O)c2ccc(-c4ccc(F)cc4OCc4ccccc4)cc2S3(=O)=O)CC1
→ nt | 3604 | 5.3 | -13.1 | -2.1 | 10.3 | -10.8
O=C(C1CCN(S(=O)(=O)c2c(Cl)cccc2Cl)CC1)N1CCCCCCC1
→ -5.3 | ? | 3.1 | 16.8 | 2.0 | -7.4 | 10.3
Cn1c(N)c(C(=O)COC(=O)c2cc(-c3ccccc3)nc3ccccc23)c(=O)n(Cc2ccccc2)c1=O
→ nt | 4453 | -3.3 | -9.4 | -17.4 | 11.6 | -3.4
CC1(C)CC(=O)C2=C(C1)NCN(Cc1ccccc1)C2
→ -21.6 | 16534* | -1.2 | 1.2 | -3.6 | -2.8 | -4.9
O=C(CCC(=O)Nc1ccccc1Cl)NNC(=S)Nc1ccccc1C(F)(F)F
→ 12.5 | 5254 | -6.4 | 1.8 | 3.7 | 11.7 | 4.3
Cc1nn(CCCC(=O)O)c(C)c1[N+](=O)[O-]
→ nt | 4067 | 2.4 | -21.9 | 1.5 | -7.9 | 9.1
Cc1cc(C)nc(Nc2ccc(Br)cc2C(=O)O)n1
→ -11.6 | 3861 | 1.3 | nt | -3.8 | 3.7 | 8.6
COc1cc2c3c(c1OC)C1(C=CC(=NO)C=C1)CC3N(C(C)=O)CC2 (configuration not stated)
→ 2.9 | 4806 | 1.5 | -17.8 | 8.5 | 9.0 | 4.0

Bioassay records from PubChem.
